Bioassay records: PubChem BioAssay, several laboratories
HNF4A DNA FP: change in binding of human HNF4 alpha to DNA | HNF4a-FITC DNA binding, fluorescence polarization, 1 h | P41235 | activity change, % at 10 µM | actives 0.3% (n = 360,000) | AID 1224865; in the data active = activity change above about 30%, passing the limit was not always enough;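 also: controls were the assay level and a saturating level of protein; the project sought stronger binding though the title names inhibitors; some compounds called inactive have numbers as strong as hits; positive values seem to mean higher polarization but the record does not say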
Target sequence (P41235 whole entry, looked up): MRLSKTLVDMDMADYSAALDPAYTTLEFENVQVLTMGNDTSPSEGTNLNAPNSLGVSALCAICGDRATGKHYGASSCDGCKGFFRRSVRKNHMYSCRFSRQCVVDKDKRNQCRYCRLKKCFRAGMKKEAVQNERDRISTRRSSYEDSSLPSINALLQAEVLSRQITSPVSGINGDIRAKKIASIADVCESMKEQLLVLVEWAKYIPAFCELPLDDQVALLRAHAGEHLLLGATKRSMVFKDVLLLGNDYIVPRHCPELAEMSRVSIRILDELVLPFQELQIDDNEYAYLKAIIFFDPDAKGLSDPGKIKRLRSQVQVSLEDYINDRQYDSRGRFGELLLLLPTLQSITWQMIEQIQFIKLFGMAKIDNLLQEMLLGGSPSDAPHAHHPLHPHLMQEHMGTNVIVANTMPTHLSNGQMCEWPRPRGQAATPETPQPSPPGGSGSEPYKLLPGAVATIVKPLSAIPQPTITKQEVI
Calb FLC: C. albicans growth modulation with fluconazole; actives 0.57% (n = 300,000); growth inhibition, % (no concentration beside the values); C. albicans CaCi-2 (fluconazole-resistant clinical isolate) + fluconazole, Alamar Blue growth, 48 h; AID 1979;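 active = most replicates above 75%; inconclusive = exactly half above 75%; inactive = most below 75%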;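 also: all wells also contain fluconazole at 8 µg/ml as a sub-toxic cotreatment; 0% = median of DMSO wells and 100% = median of geldanamycin control wells; wells of about 8 µL received 7.5 nL stock; the first replicate is given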
Vif A3G: HIV-1 Vif–A3G interaction blockers – biochemical, TR-FRET, GST-Vif 1-94, biotin-A3G peptide, dose response retest, primary screen (AID 1117319); actives 0.57% (n = 260,000); TR-FRET GST-Vif / biotin-A3G peptide binding; higher % means a stronger effect; test concentration not given here; strong numbers were not always called active; one-dose inhibition, %; IC50 in µM for titrated hits;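 active = above the screen mean plus three standard deviations and confirmed in dose response; inconclusive = results disagree or hit not tested in dose response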;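 also: Vif residues 1-94 fused to GST binding biotinylated APOBEC3G peptide 110-148; 0% = full assay without inhibitor and 100% = GST in place of GST-Vif; retest series ran down from 100 µM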
ALR H2O2 inh: blocks human ALR sulfhydryl oxidase activity. inhibition, % (test concentration not listed). actives 3.8% (n = 290,000). AID 485317. P55789. purified ALR, DTT oxidation, H2O2 HRP-luminol luminescence;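 active = mean and each replicate at 75% or more; inconclusive = only one of the two met; inactive = neither met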;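 also: stock transfer was 7.5 nL into about 7.5 µL; 0% = neutral wells and 100% = wells with inactivated enzyme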
Target sequence (P55789 whole entry, looked up): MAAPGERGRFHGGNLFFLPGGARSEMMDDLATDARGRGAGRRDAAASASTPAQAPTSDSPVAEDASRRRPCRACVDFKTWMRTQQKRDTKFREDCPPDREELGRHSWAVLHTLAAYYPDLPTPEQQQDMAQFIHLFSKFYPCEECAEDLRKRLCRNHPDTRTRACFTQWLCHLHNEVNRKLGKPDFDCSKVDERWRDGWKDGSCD
RanGTP-Impb inh: disruptors of Ran-importin-beta complex formation – biochemical, FRET, CFP-Ran, YFP-importin-beta, homogeneous, primary screen. cell-free CFP-Ran/YFP-importin-beta FRET ratio. inhibition, % (no concentration beside the values). actives 1.1% (n = 300,000). AID 2216;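 active = most replicates above 15%; inconclusive = exactly half above 15%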;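 also: 0% = DMSO wells and 100% = Ran loaded with GDP instead of GTP; wells of about 40 µL received 100 nL stock; the first replicate is given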
Beta2AR agonist: human beta-2 adrenergic receptor agonism by FAP; P07550; Am2.2-beta2AR cells, FAP receptor internalization, flow cytometry; reference of the scale not given here; response, % (concentration not given with the values); actives 0.43% (n = 340,000); AID 504454;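 active = response above a set limit, near 3 SD of response in nonfluorescent compounds, cut at about 42% in these data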;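 also: stock transfer was 100 nL into about 11 µL; a reference agonist was the positive control; negative values mostly stem from fluorescent compounds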
Target sequence (P07550 whole entry, looked up): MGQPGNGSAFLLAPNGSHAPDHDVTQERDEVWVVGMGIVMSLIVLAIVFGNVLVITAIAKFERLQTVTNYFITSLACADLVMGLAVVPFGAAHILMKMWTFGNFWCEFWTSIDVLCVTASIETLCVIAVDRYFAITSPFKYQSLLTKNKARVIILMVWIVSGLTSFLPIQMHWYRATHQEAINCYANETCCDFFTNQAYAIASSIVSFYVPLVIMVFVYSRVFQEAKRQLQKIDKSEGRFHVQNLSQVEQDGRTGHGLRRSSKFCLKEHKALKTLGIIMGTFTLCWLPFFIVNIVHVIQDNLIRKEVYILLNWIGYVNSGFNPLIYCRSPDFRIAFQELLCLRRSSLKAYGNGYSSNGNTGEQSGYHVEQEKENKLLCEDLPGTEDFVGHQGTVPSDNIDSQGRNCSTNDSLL
LANA-H2A inh: blocks KSHV LANA binding to histone H2A/H2B. cell-free LANA-H2A/H2B peptide, fluorescence polarization. AID 2629. actives 0.6% (n = 320,000). inhibition, % (no concentration beside the values); in the data active = inhibition mostly above about 10%, no sharp cut-off; inactive = mostly below about 6.7%;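 also: stock transfer was 7.5 nL into about 10 µL; 0% = median of vehicle wells and 100% = median of positive control wells; one replicate is shown; the record names a cut of 25% in any replicate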
* marks the source's active call; other numbers are inactive results; u = inconclusive; x = not tested or not shown; & = joins results of further samples.

SMILES | HNF4A DNA FP | Calb FLC | Vif A3G | ALR H2O2 inh | RanGTP-Impb inh | Beta2AR agonist | LANA-H2A inh
Cc1ccc(CNC(=O)c2ccc3c(=O)n(CC4CCCO4)c(=S)[nH]c3c2)cc1 (stereo not given) | -2.2 | 0 | 4% | -1 | -1.9 | 3 | 4.5
Cc1ccccc1OCCCC(=O)Nc1ccc(S(=O)(=O)Nc2onc(C)c2C)cc1 | 1.8 | 15 | x | -5 | 4.2 | 18 | 2.8
COc1ccccc1NS(=O)(=O)c1cccc(NC(=O)c2cc3ccccc3oc2=O)c1 | 0.0 | 2 | 1% | 2 | 1.2 | -2 | 1.9
CSc1sc(C(=O)NNC(C)=O)c2c1C1(CCC2)SCCS1 | -0.3 | 7 | -2% | -3 | 3.4 | 14 | 3.3
O=c1[nH]c(CN(CCO)CCO)nc2c1C1(CCCCC1)Cc1ccccc1-2 | 0.5 | 10 | 0% | -1 | -4.2 | 9 | -0.6
S=C1N(c2ccccc2)CN(C2CCCCC2)CN1c1ccccc1 | -2.6 | 12 | -2% | -3 | 2.3 | 2 | -4.8
Cc1cc(C(=O)COc2nncc3ccccc23)c(C)n1C | -1.0 | -4 | u | x | -2.4 | 3 | x
COc1cc(SC)ccc1C(=O)OCC(=O)NC(=O)NC(C)C | -1.0 | -15 | -4% | -3 | -3.3 | -8 | -2.4
CCONc1ncnc2nonc12 | 0.1 | u | 14% | -5 | -0.3 | 7 | 5.1
Cc1ccc(S(=O)(=O)N2CCC(C(=O)Nc3ccccc3N3CCCCC3)CC2)cc1 | 5.7 | 5 | 12%&2% | -5 | 3.4 | -5 | -1.8
O=C1CC(c2ccc(F)cc2)Sc2nc(C34CC5CC(CC(C5)C3)C4)nn21 (stereo not given) | -3.2 | -3 | 21% | 18 | 4.4 | -2 | -7.4
O=c1c2ccccc2ccc2ccccc12 | 2.9 | x | x | 18 | x | 4 | 4.3
COc1ccc(Cl)cc1NC(=O)NCC1CCN(Cc2cc(C)ccc2C)CC1 | 3.3 | 11 | -4% | -7 | -0.3 | 23 | 0.8
CCc1c(C(=O)NNC(=S)NCC2CCCO2)csc1C (stereo not given) | 0.3 | -2 | 4% | 33 | 2.7 | 7 | -0.9
COc1ccc(CN2CCNC(=O)C2CC(=O)N(C)CCc2cnn(C)c2)c(F)c1 (stereo not given) | 1.0 | 6 | x | -10 | 3.6 | -3 | -0.2
COc1ccccc1NC(=O)Nc1cc(C(C)(C)C)nn1C | -0.2 | -6 | 8% | 2 | 1.6 | -5 | -0.1
CCOC(=O)CSc1nc(C)c2cc(C)c(C)cc2n1 | 1.8 | 14 | x | 17 | 3.2 | -1 | 7.2
CC1=Nc2ccc(Br)cc2C(c2ccccc2)N1CC(=O)O (stereo not given) | -2.6 | -6 | 22% | 11 | -1.5 | -5 | 0.2
O=C(COC(=O)c1ccccc1)NC1CCCC1 | 2.6 | -10 | -2% | -3 | 0.4 | x | 0.7
Cc1ccnc(NC(=O)CCC(=O)N(CC(=O)NC2CCCCC2)C2CCCC2)c1 | 7.8 | 7 | -11% | -5 | -2.3 | 0 | -1.0
Cc1nnc(SC(C)C(=O)NCC2CCCO2)s1 (stereo not given) | -1.3 | x | -12% | -13 | x | 0 | 4.9
CC(=O)c1cccc(CN2CCN(C(C)C)C(CCO)C2)c1 (stereo not given) | 0.5 | 1 | 32% | -14 | 3.0 | -4 | -1.7
Cc1cccc(C(C)C)c1NC(=O)COC(=O)c1cc2ccccc2oc1=O | -1.7 | x | -8% | 2 | x | 1 | -1.1
O=S(=O)(c1ccccc1)N1CCC(O)(CSc2ccc(Cl)cc2)CC1 | -4.0 | 12 | -7% | -9 | -1.0 | 7 | 3.2
COc1ccccc1C(=O)NCCC(=O)NCCCSc1ccccc1 | -2.6 | -1 | x | x | -2.6 | -3 | -3.7
COCCn1c(Cc2ccccc2)nnc1SCC(=O)NC1CCCCC1 | -1.1 | 8 | 5% | -8 | 1.4 | 11 | -2.2
COc1ccc(NC(C)=O)cc1NC(=O)c1ccc(Cl)cc1 | 0.9 | -1 | -7% | -11 | -1.3 | 1 | -2.8
CC(=O)Nc1ccc(S(=O)(=O)N(C)CC(=O)NCCC2=CCCCC2)cc1 | 2.4 | 29 | x | 0 | 4.1 | -5 | -4.6
CCOC(=O)c1ccc(NC(=O)c2c(C)[nH]c(C(=O)OCC)c2C)cc1 | 2.9 | -6 | -1% | -17 | -4.5 | -5 | -1.9
Cc1ccc(-c2nn(-c3ccccc3)cc2/C=N/n2c(-c3ccncc3)n[nH]c2=S)cc1 | -9.3 | -1 | -1% | -14 | u | -3 | -5.5

Ordered by value in RanGTP-Impb inh (largest number first): 6 of the compounds above.
molecule,RanGTP-Impb inh
CC(=O)Nc1ccc(S(=O)(=O)N(C)CC(=O)NCCC2=CCCCC2)cc1,4.1
Cc1ccc(S(=O)(=O)N2CCC(C(=O)Nc3ccccc3N3CCCCC3)CC2)cc1,3.4
O=S(=O)(c1ccccc1)N1CCC(O)(CSc2ccc(Cl)cc2)CC1,-1.0
CC1=Nc2ccc(Br)cc2C(c2ccccc2)N1CC(=O)O (stereo not given),-1.5
Cc1ccnc(NC(=O)CCC(=O)N(CC(=O)NC2CCCCC2)C2CCCC2)c1,-2.3
CCOC(=O)c1ccc(NC(=O)c2c(C)[nH]c(C(=O)OCC)c2C)cc1,-4.5

The results go on.
SMILES | HNF4A DNA FP | Calb FLC | Vif A3G | ALR H2O2 inh | RanGTP-Impb inh | Beta2AR agonist | LANA-H2A inh
CCS(=O)(=O)NCC(c1cccnc1)N1CCN(c2ccccc2F)CC1 (stereo not given) | -1.0 | 6 | -7% | 0 | u | 3 | 2.0
O=C(COc1ccc(Cl)cc1Br)N1CCN(S(=O)(=O)c2ccccc2)CC1 | 3.0 | -9 | x | -6 | -2.3 | -12 | -3.0
O=C(NCCN1CCOCC1)c1cc(-c2ccc(F)cc2)nc2ccccc12 | 2.6 | 16 | 1% | -6 | 2.5 | 2 | -1.0
Cc1cc(C(=O)OCC(=O)Nc2cc(S(=O)(=O)N(C)C)ccc2C)c2ccccc2n1 | 0.5 | -39 | 12% | -12 | 0.4 | 10 | -5.0
O=C(O)c1ccc2c(c1)C(=O)N(c1ccc(OCc3ccccc3)cc1)C2=O | 2.1 | -12 | -2% | 1 | u | 9 | 4.1
COc1ccc(CCNC(=O)C2CC(c3cccc(F)c3)=NO2)cc1 (stereo not given) | -1.5 | 6 | 13% | -2 | -0.7 | -4 | 4.3
COc1ccccc1N1C(=O)C(=O)N(C)C1=O | 0.9 | 0 | x | 5 | 3.1 | 6 | -1.7
Cc1ccc(-c2nnn(CC(=O)N3CCCCC3)n2)o1 | 2.7 | -4 | 8% | -1 | 3.6 | -1 | -2.1
NS(=O)(=O)c1cc([N+](=O)[O-])ccc1NCc1cccnc1 | 1.0 | -7 | -1% | 2 | -0.8 | -8 | 0.2
O=C(CN1CCN(S(=O)(=O)c2ccc(Cl)cc2)CC1)NC(=O)NC1CCCCC1 | -0.9 | 10 | 0% | -23 | 2.4 | -8 | -1.9
COC(=O)c1ccc(NC(=S)NC2CC3CCC2C3)cc1 (stereo not given) | 1.3 | -18 | 0% | 3 | 2.0 | -5 | -1.8
COc1ccc(CCN2C(=O)CCC2(C)C(=O)NC2CCCC2)cc1OC (stereo not given) | -4.5 | -3 | -7% | -16 | u | 0 | -3.5
CC(C)CCNC(=O)c1cc(S(=O)(=O)N2CCCCC2)ccc1N1CCOCC1 | -1.2 | -6 | x | x | 3.2 | 0 | -2.1
CCc1ccc(C(=O)NNc2ccccc2F)cc1 | -3.5 | 0 | -12% | -3 | 0.6 | 16 | 0.4
Cc1cccc(C(=O)NCCc2nnc(SCC(=O)Nc3nc(C)cs3)n2C)c1 | 2.3 | -2 | 10% | 2 | -1.9 | -2 | 3.1

Part of the list above in order of molar mass, descending.
SMILES | HNF4A DNA FP | Calb FLC | Vif A3G | ALR H2O2 inh | RanGTP-Impb inh | Beta2AR agonist | LANA-H2A inh
O=C(COc1ccc(Cl)cc1Br)N1CCN(S(=O)(=O)c2ccccc2)CC1 | 3.0 | -9 | x | -6 | -2.3 | -12 | -3.0
CCOC(=O)c1ccc(NC(=O)c2c(C)[nH]c(C(=O)OCC)c2C)cc1 | 2.9 | -6 | -1% | -17 | -4.5 | -5 | -1.9
COC(=O)c1ccc(NC(=S)NC2CC3CCC2C3)cc1 (stereo not given) | 1.3 | -18 | 0% | 3 | 2.0 | -5 | -1.8

Other results follow:
SMILES | HNF4A DNA FP | Calb FLC | Vif A3G | ALR H2O2 inh | RanGTP-Impb inh | Beta2AR agonist | LANA-H2A inh
COc1ccc(C(=O)CSc2nc(-c3ccccn3)nc(C)c2Cl)cc1 | 2.5 | 4 | 0% | -7 | 1.6 | -3 | 7.2
CCCCN(CCCC)S(=O)(=O)c1c(C)[nH]c(=O)[nH]c1=O | -0.1 | 3 | u | -3 | 3.0 | -2 | 6.7
CC(C)C(NC(=O)C12CC3CC(CC(C3)C1)C2)C(=O)N/N=C/C1=C(N2CCOCC2)C(=C\c2cccc([N+](=O)[O-])c2)/CC1 (stereo not given) | -0.6 | -4 | 27% | -2 | 1.3 | -17 | 2.6
Cc1cc(NS(=O)(=O)c2ccc(NC(=O)Cc3ccccc3)cc2)nc(C)n1 | -0.8 | -4 | x | x | 1.3 | 3 | -2.4
CC(C)=C1SC(N2CCN(c3ccc(C)cc3)CC2)=NC1=O | 2.6 | u | 9% | 94* | 0.2 | 1 | -2.3
CC(=O)c1ccc(NC(=O)CCc2nnc3ccc(NCc4ccco4)nn23)cc1 | 0.4 | 5 | x | -14 | 0.7 | 13 | 2.2
CCOC(=O)c1sc(=S)n(-c2ccc3c(c2)OCO3)c1N | 2.8 | -10 | 24% | 0 | 6.2 | 2 | -6.7
CCCCn1c(N)c(N(CC(C)C)C(=O)CSCC(=O)Nc2cccc(C)c2)c(=O)[nH]c1=O | 5.1 | x | 4% | -10 | 0.4 | -1 | -1.8
CCN(CC(=O)Nc1ccc2c(c1)OCCO2)C(=O)C1CC(=O)N(c2ccc(OC)cc2OC)C1 (stereo not given) | 0.2 | -3 | -11% | -8 | -5.0 | -3 | 0.5
Cc1ccccc1C(=O)NCC(=O)OC(C)C(=O)NCc1ccco1 (stereo not given) | -2.0 | -5 | 13% | -8 | 0.4 | -2 | -4.0
Cc1ccc(-n2ncc3c(=O)n(CC(=O)NC4CCCCC4)cnc32)cc1C | -0.9 | -5 | 0% | -4 | 0.4 | 2 | -2.7
Cc1cc(OCC(O)CN(CCO)CCO)ccc1Cl (stereo not given) | 0.2 | 6 | 1% | -2 | -0.3 | -2 | -1.4
O=C(O)CC/C(=N\Nc1ccc([N+](=O)[O-])cc1S(=O)(=O)N1CCOCC1)c1cccs1 | -1.3 | 2 | -10% | x | -9.4 | 5 | 3.8
CCc1c(C)nc2ncnn2c1N1CCCC(C(=O)Nc2ccc(NC(C)=O)cc2)C1 (stereo not given) | -0.4 | -5 | 12% | -4 | -1.5 | -2 | -3.0
CCc1c(C)nc2c(-c3ccccc3OC)c(C)[nH]n2c1=O | 2.5 | -1 | 0% | 30 | -0.5 | -9 | -6.6
Oc1c(C(Nc2ccccn2)c2cccnc2)cc(Cl)c2cccnc12 (stereo not given) | 4.9 | -4 | x | -32 | 6.8 | 1 | -4.3
CC(=O)c1cnc(N(C)C)s1 | 3.0 | 7 | -4% | -3 | -8.1 | -8 | 5.3
CCn1cc(C(=O)N2CCCc3ccccc32)c2cc(OC)c(OC)cc2c1=O | 0.2 | -7 | -13% | x | -3.1 | -8 | -0.2
C[n+]1ccccc1C1CCCC/C1=N\NC(N)=S (stereo not given) | 2.7 | -30 | 5% | -4 | 9.0 | 3 | -0.9

Hits appear at their usual frequency; any-hit rate near 6.3%.
